Cruzain inh Det: blocks cruzain activity in presence of Triton detergent; P25779; purified cruzain, Z-FR-AMC fluorescence, 0.01% Triton; Potency, µM, inactives show max response, negative = inhibition, hits mostly inhibitors; 200,000 compounds, 0.43% hits; active = well fitted curve in the direction sought with a large enough effect; inconclusive = small, poorly fitted or top-dose-only effect, or another doubt; inactive = no such curve, though single readings can be large; an effect the other way counts as inactive or inconclusive;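 also: plate controls were neutral wells for no effect and buffer without enzyme for full effect; nearly all actives have a fitted effect of over 40% in size; top concentration of the series not given in the record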
Target sequence (P25779 123-467 limits assumed): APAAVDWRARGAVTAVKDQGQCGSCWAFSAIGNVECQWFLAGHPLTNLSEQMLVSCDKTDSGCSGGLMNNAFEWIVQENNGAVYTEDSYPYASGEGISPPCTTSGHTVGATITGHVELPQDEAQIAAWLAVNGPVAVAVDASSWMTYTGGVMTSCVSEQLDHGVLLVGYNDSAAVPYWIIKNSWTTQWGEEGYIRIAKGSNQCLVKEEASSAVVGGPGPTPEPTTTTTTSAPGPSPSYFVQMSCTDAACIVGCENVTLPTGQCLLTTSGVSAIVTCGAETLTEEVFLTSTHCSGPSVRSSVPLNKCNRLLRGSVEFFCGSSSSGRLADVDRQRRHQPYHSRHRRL
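Cysteine protease activity tested under reducing, mildly acidic conditions (100 mM sodium acetate pH 5.5, 5 mM DTT) plus 0.01% Triton X-100. Cruzain 1.5 nM; substrate Z-FR-AMC 2 uM; 15 min compound preincubation at room temperature.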
2A StopGo: FMDV 2A StopGo reporter, luciferase signal; Potency, µM (doses to about 57.9 µM), for the others: top-dose signal change, negative = less light; AID 1159524; human cells with a luciferase reporter of 2A StopGo recoding; control for the full effect not named in the record; 410,000 compounds, 1.2% hits; active = well fitted falling curve with a large enough effect; inconclusive = small, poorly fitted or top-dose-only effect; inactive = no such curve, though single readings can be large or run the other way; tested in HEK293T cells; also: % is scaled to controls: 0 for no effect and ±100 for the full control effect; nearly all actives have a fitted effect of over 45% in size; luciferase light after 4 h
NS1 inh: blocks influenza NS1 protein function. S. cerevisiae slowed by influenza A NS1, growth recovery by OD600. Potency, µM (titrated, usually from 46.1 µM), for inactives: at the top dose activity, positive = more growth. 270,000 compounds, 0.4% hits. AID 2326; also: actives are rising curves; nearly all actives have a fitted effect of over 50% in size
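Growth recovery, yeast-based: influenza A NS1 expressed in S. cerevisiae causes slow growth, and suppressors are detected by OD600. The parent strain without NS1 is used as positive control.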
Cruzain noTriton: inhibitors of Trypanosoma cruzi cruzain without detergent; Potency, µM, for inactives: max response, negative = inhibition, usual class: inhibitors; purified cruzain, Z-FR-AMC fluorescence, no detergent; 200,000 compounds, 2.3% hits; P25779; active = well fitted curve in the direction sought with a large enough effect; inconclusive = small, poorly fitted or top-dose-only effect, or another doubt; inactive = no such curve, though single readings can be large; an effect the other way counts as inactive or inconclusive;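 also: plate controls were enzyme without inhibitor for no effect and buffer without enzyme for full effect; nearly all actives have a fitted effect of over 40% in size; top concentration of the series not given in the record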
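Purified cruzain at 1.5 nM, pre-incubated 15 min with compound at room temperature in 100 mM sodium acetate pH 5.5, 5 mM DTT, 0.00005% Triton X-100. Reaction started with 2 uM Z-FR-AMC; AMC fluorescence increase over 60 s gives rate.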
RE007 growth inh: less growth of the S. pombe RE007 Vpr strain; S. pombe RE007 Vpr strain, BacTiter-Glo ATP luminescence, 24 h; control for the full effect not named in the record; Potency, µM (series often up to 92.2 µM), inactives show at the top dose activity change, negative = less growth; 360,000 compounds, 0.21% hits; active = well fitted falling curve with a large enough effect; inconclusive = small, poorly fitted or top-dose-only effect; inactive = no such curve, though single readings can be large or run the other way;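 also: % is scaled to controls: 0 for no effect and ±100 for the full control effect; nearly all actives have a fitted effect of over 50% in size; the assay follows cell death caused by Vpr and the record does not say whether a fall means rescue or toxicity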
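Fission yeast strain RE007, carrying one chromosomally integrated HIV-1 vpr copy, was seeded at OD 0.01 in PMG+AL medium with 23 nL pinned compound. After 24 h at 30 °C and 99% humidity, viability was read by BacTiter-Glo luminescence.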
Marburg entry inh: blocks Marburg virus binding to or entry into cells. AID 540276. 300,000 compounds, 1.8% hits. Marburg virus pseudotyped entry inhibition, cell reporter; control for the full effect not named in the record; about a third of the inactives were read at about 46 µM. Potency, µM (top dose mostly 37.8 µM), for inactives: at the top dose activity change, negative = inhibition, actives largely listed as inhibitors; active = well fitted inhibition curve with a large enough effect; inconclusive = small, poorly fitted or top-dose-only effect, or effect the other way; inactive = flat fitted curve, though single readings scatter; tested in HEK293 cells; about a fifth of its hits are not listed in these tables; also: % is scaled to controls: 0 for no effect and ±100 for the full control effect; luciferase read-out
SARS PLpro yeast: blocks SARS-CoV papain-like protease in a yeast assay; S. cerevisiae expressing SARS-CoV PLpro, growth rescue; control for the full effect not named in the record; Potency, µM (titrated, usually from 32.9 µM), without a hit: top-dose activity, positive = growth rescue; 330,000 compounds, 0.19% hits; also: 0% is about no effect; nearly all actives have a fitted effect of over 55% in size; growth read by luminescence after 48 h
Lassa entry inh: inhibitors of Lassa virus binding or cell entry | 300,000 compounds, 1.2% hits | AID 540256 | Lassa virus pseudotype entry inhibition, cell reporter; control for the full effect not named in the record | Potency, µM (series often up to 37.9 µM), without a hit: at the top dose activity change, negative = inhibition, actives largely listed as inhibitors; active means well fitted inhibition curve with a large enough effect; inconclusive means small, poorly fitted or top-dose-only effect, or effect the other way; inactive means flat fitted curve, though single readings scatter; tested in HEK293 cells; also: % is scaled to controls: 0 for no effect and ±100 for the full control effect; nearly all actives have a fitted effect of over 50% in size; luciferase read-out
* = called active by the depositor; ? = inconclusive; · = no result given; & = joins results of further samples; [ ] = dose if it differs, or a comment. Unless noted, calls follow the shape of the dose curve; as a rule, active means well fitted rising curve with a large enough effect; inconclusive means small, poorly fitted or top-dose-only effect; inactive means no such curve, though single readings can be large or run the other way. Potency is read from the fitted curve at half-maximal effect.

SMILES	Cruzain inh Det	2A StopGo	NS1 inh	Cruzain noTriton	RE007 growth inh	Marburg entry inh	SARS PLpro yeast	Lassa entry inh
CC(=Nc1ccc(C)cc1C)c1sc2ccccc2c1O	·	-24%	-4%	·	-11%	·	-2%	·
CC(C)(C)n1ncc2c(=O)n(CC(=O)NCc3ccc(F)cc3)cnc21	1.7%	-38%	7%	6%	-2%	?	?	?
CC1(C)C(=O)OC(c2cccn2-c2ccc([N+](=O)[O-])cc2)C2(CCCCC2)C1=O (stereo not drawn)	-0.1%	-5%	10%	-15%	-1%	0%	3%	-2%
COCCN(CCOC)C(=S)Nc1ccccc1	·	6%	·	·	3%	-7%	24%	1%[46.1 µM]
Cc1cc(C(=O)OCC(=O)Nc2ccccc2)c(C)o1	·	14%	2%	·	87%	2%[46.1 µM]	0%	2%[46.1 µM]
COc1cccc(N2CCN(C(=O)c3cnn(-c4ccccc4Cl)c3C3CCN(C(=O)OC(C)(C)C)CC3)CC2)c1	-11%	-15%	·	?	·	·	·	?
Cc1ccc(Cl)cc1NC(=S)N1CCCCCC1	·	-2%	-1%	·	10%	·	13%	·
CCOc1ccc(CC(=O)NC2CC(=O)N(c3cccc(F)c3)C2)cc1 (stereo not drawn)	1.4%	-5%	·	-16%	·	·	·	18%[46.1 µM]
COc1cc(OC)c(NC(=O)c2cnc(N3CCCC3)nc2C)cc1Cl	-6.8%	-16%	·	?	·	·	·	?
Cc1ccc2cc(CN(C(=O)c3cccnc3)C(C)C)c(=O)[nH]c2c1	1.1%	-2%	-6%	?	-17%	?	0%	0%
CC1(C)Cc2c(ccc3ccccc23)C(c2cc3ccccc3oc2=O)=N1	-2.8%	-11%	4%	1%	1%[3.69 µM]	5.8µM*	0%	13µM*
COc1cc(NC(=O)NC2Cc3ccccc3C2)cc(OC)c1	·	38%[activator]	-4%	·	6%	·	-2%	·
NC(=O)C[n+]1cccc2ccccc21	0.4%	4%	1%	-10%	-9%	-3%&-3%	3%	-18%
C=CCn1cc(/C=C2\SC(N3CCOCC3)=NC2=O)c2ccccc21	·	25%	0%	·	10%	·	-2%	·
N#CC(C#N)=C1c2cc(S(=O)(=O)NCCO)ccc2-c2ccc(S(=O)(=O)NCCO)cc21	·	-17%	4%	·	1%	·	3%	·
O=C(O)C(Cc1c[nH]c2ccccc12)NS(=O)(=O)c1cccc(Cl)c1Cl (stereo not drawn)	·	-10%	-2%	·	-14%	·	3%	·
Cc1cccc(C)c1OCc1cc(C(=O)N(C)CCc2ccccn2)no1	·	4%	-19%	·	4%	-11%	2%	1%
N#Cc1ccccc1COC(=O)c1cccnc1N	·	-14%	·	·	2%	-2%	-3%	-9%
C[C@@H]1CC[C@H]2C(=O)N3[C@@H](CC[C@@H](C)[C@@H]3c3ccc(Br)cc3)C(=O)N2[C@H]1c1ccc(Br)cc1	-3.1%	?	7%	-17%	-13%	-15%	-10%	18%
COc1ccc(-n2c(=O)c3ccccc3n(CC(=O)NC3CCCCC3)c2=O)cc1	1.0%	-5%	-7%	-12%	12%	-36%	?	-2%
CC1CCCN(S(=O)(=O)c2ccc(NC(=O)c3nc(SC(C)C)ncc3Cl)cc2)C1 (stereo not drawn)	-1.0%	-5%	·	2%	·	?	·	-3%[46.1 µM]
COc1ccc(C(C)=O)cc1COC(=O)c1ccc2c(c1)OCO2	?	-9%	3%	-21%	-7%	?	-7%	-3%
O=Cc1c(NCc2cccc(F)c2)c2ccccc2[nH]c1=O	·	18%	-12%	·	0%	5%	-2%	11%
O=C(COC(=O)c1ccc(Br)o1)Nc1nc2ccccc2s1	-8.6%	0%	-53%	?	-3%	14%	-29%	5%
Cc1ccc(N(C(=O)CNC(=O)c2ccco2)C(C(=O)NC2CCCCC2)c2ccncc2)c(C)c1 (stereo not drawn)	·	22%	-1%	·	-2%	1%[46.1 µM]	0%	-10%[46.1 µM]
O=C(NC1CC2CCCC(C1)N2CC(=O)N1CCCc2ccccc21)C1CCCCC1 (stereo not drawn)	-2.5%	11%	-3%	9%	-13%	-26%	23%	-6%
Cc1onc(-c2ccccc2Cl)c1C(=O)Nc1ccc(Br)cc1	·	-14%	-33%	·	2%	?	-10%	-7%[46.1 µM]
O=C(Nc1ccc2c(c1)OCO2)C1CC(c2ccc(Cl)cc2)=NO1 (stereo not drawn)	-0.6%	8%	-3%	-3%	16%	-25%	-3%	6%
CCCc1cc(-n2ccnc2C)n2c(nc3ccccc32)c1C#N	·	12%	·	·	3%	1%[46.1 µM]	·	3%
CNC(=O)C1CCN(S(=O)(=O)c2c(C)noc2/C=C/c2ccccc2F)CC1	·	0%	-5%	·	-4%	·	7%	·
O=C(NNC(=O)c1ccco1)c1csc(N2CCOCC2)n1	·	2%	·	·	3%	23%	-1%	1%
Cc1ccc(NC(=S)NCc2ccc(S(N)(=O)=O)cc2)c(C)c1	·	-11%	-5%	·	23%	1%[46.1 µM]	1%	20%
CCCCc1nc2ccccc2n1CC(=O)N(COCC)c1c(C)cccc1CC	-6.4%	?	·	11%	·	?	·	?
S=c1[nH]nc(C2COc3ccccc3O2)o1 (stereo not drawn)	-2.8%	59%	2%	-6%	-18%	27%	-2%	8%
Cc1c(C(=O)O)cccc1-c1ccc(/C=C2/NC(=O)N(c3ccccc3)C2=O)o1	·	30%[activator]	5%	·	-17%	·	1%	·
COc1ccc(OC)c(Nc2cc(C)c3ccccc3n2)c1	·	-3%	-14%	·	-28%	·	3%	·
COc1ccc(C=NNC(=O)CCCC(=O)NN=Cc2ccc(OC)c(O)c2)cc1O	·	-15%	·	·	17%	-2%	·	1%
O=S(=O)(c1ccc2c(c1)OCCO2)N1CCC(c2nc3ccc(Cl)cc3[nH]2)CC1	-7.1%	14µM*	-71%	-30%	9%	?	6%	-43%[14.3 µM]
Cc1cc(C)c(C)c(S(=O)(=O)NCc2cccnc2)c1C	6.7%	71%[activator]	-15%	-2%	-9%	8%	-5%	-5%
Cc1cc2oc(=O)cc(Cn3ccnc3)c2cc1C	2.1%	30%	-5%	4%	-3%	-24%	1%	0%
CC(C)(C)NC(=O)CN(C(=O)Cn1nnc(-c2ccccc2F)n1)c1cccc2c1CCCC2	-2.1%	1%	20%	1%	-5%	?	?	?
COc1ccc(CC(=O)NC(C)c2nnc(SCc3nc4ccccc4c(=O)[nH]3)n2C)cc1 (stereo not drawn)	3.4%	14%	8%	8%	3%	5%	?	13%
CCc1ccccc1N(C)C(=O)c1cnc(N2CCOCC2)c2ccccc12	-3.6%	-14%	·	3%	·	·	·	?
COc1ccc(NCc2cc(=O)oc3cc(NC(C)=O)ccc23)cc1	·	11%	-2%	·	-5%	6%	0%	20%
O=S(N1CCc2ccccc21)C12CC3CC(CC(C3)C1)C2 (stereo not drawn)	·	?	·	·	24%	-11%[46.1 µM]	0%	22%
OC(CNCc1cccnc1)COc1ccc2ccccc2c1 (stereo not drawn)	·	36%[activator]	-6%	·	?	26%[46.1 µM]	-8%	0%[46.1 µM]
Cc1[nH]n(-c2ccccc2)c(=O)c1C=Nc1cnc2ccccc2c1	-2.7%	-24%	-8%	?	-25%	5%	-8%	5%
CC(C)C/C(=N/O)c1cn(C)c2ccccc12	·	8%	·	·	-11%	?	-4%	1.1µM*
COc1ccc(-c2nc3scc(CCNS(=O)(=O)c4c(C)noc4C)n3n2)cc1OC	3.2%	19%	·	-5%	·	·	·	-3%[46.1 µM]
BrC(=C\c1ccccc1)/C=N/Nc1nc2ccccc2[nH]1	-11%	6%	-3%	?	-7%	?	-17%	?
O=C(Nc1ccc(S(=O)(=O)N2CCCC2)cc1)c1ccc(F)cc1	·	-1%	·	·	6%	-2%[46.1 µM]	·	-2%
Cc1cc(N2C(=O)C(O)=C(C(=O)c3ccco3)C2c2ccc([N+](=O)[O-])cc2)no1 (stereo not drawn)	·	-14%	-3%	·	12%	16%[46.1 µM]	-1%	10%[46.1 µM]
COc1ccc(C2c3ccc4ccccc4c3Oc3ncn(CCO)c(=N)c32)cc1OC (stereo not drawn)	·	-13%	1%	·	-4%	7%	0%	·
CN(C)c1ccc(C2/C(=C(/O)c3ccccc3)C(=O)C(=O)N2CCCC(=O)O)cc1 (stereo not drawn)	·	-5%	1%	·	2%	3%	-1%	?
SC(COCc1ccccc1)CN1CCN(Cc2ccc3c(c2)OCO3)CC1 (stereo not drawn)	-2.7%	-22%	14%	18%	8%	-7%[46.1 µM]	-30%	-21%[46.1 µM]
Cc1ccc(Cn2c(CN3CCC(C(=O)NCCc4ccccc4)CC3)cc3ccccc32)cc1	-1.6%	-20%	·	4%	·	·	·	?
COc1ccc(N2CCN(C(=O)c3ccc(N4CCCCS4(=O)=O)cc3)CC2)cc1	·	-14%	5%	·	6%	·	10%	·

Compound profiles (already shown).
CN(C)c1ccc(C2/C(=C(/O)c3ccccc3)C(=O)C(=O)N2CCCC(=O)O)cc1 (stereo not drawn) in the list: Cruzain inh Det: ·; 2A StopGo: -5%; NS1 inh: 1%; Cruzain noTriton: ·; RE007 growth inh: 2%; Marburg entry inh: 3%; SARS PLpro yeast: -1%; Lassa entry inh: ?
COc1ccc(C2c3ccc4ccccc4c3Oc3ncn(CCO)c(=N)c32)cc1OC (stereo not drawn) in the list: Cruzain inh Det: ·; 2A StopGo: -13%; NS1 inh: 1%; Cruzain noTriton: ·; RE007 growth inh: -4%; Marburg entry inh: 7%; SARS PLpro yeast: 0%; Lassa entry inh: ·
BrC(=C\c1ccccc1)/C=N/Nc1nc2ccccc2[nH]1 in the list: Cruzain inh Det: -11%; 2A StopGo: 6%; NS1 inh: -3%; Cruzain noTriton: ?; RE007 growth inh: -7%; Marburg entry inh: ?; SARS PLpro yeast: -17%; Lassa entry inh: ?

Rows are unselected. Share with any hit: about 4.7%.
